HPGD inh: inhibitors of human 15-hydroxyprostaglandin dehydrogenase (HPGD); P15428; purified HPGD, NADH fluorescence kinetic, PGE2 substrate; Potency, µM, without a hit: at the top dose activity change, negative = inhibition, actives largely listed as inhibitors; hit rate 4.3% among 150,000; AID 894; active = well fitted inhibition curve with a large enough effect (not every such curve was filed as active); inconclusive = small, poorly fitted or top-dose-only effect, or another doubt; inactive = no such curve, though single readings can be large or run the other way;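 further: top concentration of the series not given in the record; plate controls included wells without enzyme; inactives centre near -10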
Target sequence (P15428 whole entry, looked up): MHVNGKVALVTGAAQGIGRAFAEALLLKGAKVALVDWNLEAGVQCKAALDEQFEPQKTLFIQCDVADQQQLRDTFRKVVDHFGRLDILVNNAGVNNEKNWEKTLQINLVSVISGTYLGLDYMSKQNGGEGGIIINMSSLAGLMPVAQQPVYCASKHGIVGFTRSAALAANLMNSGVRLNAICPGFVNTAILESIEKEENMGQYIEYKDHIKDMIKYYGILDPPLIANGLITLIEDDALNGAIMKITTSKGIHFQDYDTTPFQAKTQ
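20 nM HPGD preincubated 15 min at room temperature with compound in 50 mM Tris-HCl pH 8, 0.01% Tween 20. Started with 1 mM NAD+ and 30 uM prostaglandin E2; NADH fluorescence (360/450 nm) read 5 times over 30-s intervals, last minus first.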
Starred values were filed as active, the others as inactive; ? = inconclusive. On the % scale 0 is the no-effect control and ±100 the full control effect; potency means the concentration at half of the fitted maximal effect. The list is partial; the hit share may differ from the screen's.

HPGD inh,SMILES
-16.8%,Cn1c(CN2CCCC2)nc2cc(NC(=O)COc3ccc([N+](=O)[O-])cc3)ccc21
-5.9%,CCN(C(=O)CSc1nnc(NC2CCCCC2)s1)C1CCS(=O)(=O)C1 (stereo not drawn)
-18.9%,Cc1c(NC(=O)/C(C#N)=C/c2ccc(-c3cc(Cl)ccc3Cl)o2)c(=O)n(-c2ccccc2)n1C
-25.2%,COCCn1c(=O)c(-c2ccc(OC)cc2)nc2cnc(OC)nc21
2.5%,CCC(Sc1ccccc1C(=O)O)C(=O)O (stereo not drawn)
-14.1%,Cc1cc2c(cc1C)N(C(=O)CN1C(=O)c3ccccc3C1=O)C(C)(C)c1ssc(=S)c1-2
-5.0%,CCCCC/C=C\C/C=C\C/C=C\C=C\C(=O)CCCC(=O)O
?,CC(=O)N1CCc2c(sc(NC(=O)c3ccc4c(c3)OCCO4)c2C#N)C1
-3.3%,CCN(CC)C(=O)Cn1cnc([N+](=O)[O-])n1
-6.0%,CCc1ccc(C(C)NC(=O)c2ncn[nH]2)cc1 (stereo not drawn)
2.8%,Cc1ccc(-c2noc(CN(C(=O)CCN3C(=O)c4ccccc4C3=O)C(C)C)n2)cc1
-6.8%,Cc1ccc(C(=O)ON=C2CCN(c3ccc([N+](=O)[O-])cc3)CC2)cc1
-10.8%,O=C(CN1C(=O)/C(=C\c2ccc(F)cc2)Oc2ccccc21)N1CCN(c2ccccn2)CC1
-7.2%,Cc1nc(SCC(=O)N2CCN(C(=O)c3ccco3)CC2)c2c(C)c(C)sc2n1
-4.9%,O=C(OCCN=C1NS(=O)(=O)c2ccccc21)c1ccncc1
?,CS(=O)(=O)N1CCC[C@@]2(CCN(c3ccccn3)C2)C1
?,COc1ccc(CCNC(=O)c2cc(-c3ccc(Cl)c(Cl)c3)oc2C)cc1
?,CC(=O)OC[C@H]1O[C@@H](Sc2cccc3cccnc23)[C@H](OC(C)=O)[C@@H](OC(C)=O)[C@H]1OC(C)=O
-4.7%,CC1Cc2ccccc2N1C(=O)CSc1nnc(Cc2ccccc2)n1CCc1ccccc1 (stereo not drawn)
-27.0%,O=C(Cc1ccccc1)NC1CCN(S(=O)(=O)c2ccc(C(=O)O)cc2)CC1
-14.5%,CN(C)CC(C)(C)CNS(=O)(=O)c1cccc2nsnc12
-9.0%,CC(C)(O)[C@H](O)COc1c2occc2cc2ccc(=O)oc12
-21.0%,CC(=O)c1c(C(C)=O)c(C)n(NC(=O)c2ccncc2)c1C
-13.9%,COc1cc(C(=O)NCCCNc2ccc([N+](=O)[O-])cc2)cc(OC)c1OC
-12.5%,CN1CCN(c2nc(-c3cccnc3)nc3ccccc23)CC1
-12.9%,Nc1c(-c2ccccc2)c(CN2CCOCC2)nn1-c1ccccc1
-9.5%,CCOC(=O)c1sc(NC(=O)C(CC)Sc2nccn2C)nc1C (stereo not drawn)
-12.6%,CCCc1nc(SCC(=O)N2c3ccccc3CC2C)c2c(C)c(C)sc2n1 (stereo not drawn)
?,O=C(NCCC1=CCCCC1)c1ccc2c(=O)n3c(nc2c1)CCCCC3
-9.0%,CCN(CC)S(=O)(=O)c1ccc2oc(C(=O)NCc3ccc(F)cc3)c(C)c2c1
-21.9%,CS(=O)(=O)c1ccc2nc(NC(=O)c3ccco3)sc2c1
-11.5%,Cc1ccc(-n2nnnc2SC(C)C(=O)Nc2ccccc2-c2ccccc2)cc1 (stereo not drawn)
-8.6%,CNC(=O)c1ccccc1NC(=O)c1ccco1
-17.6%,CCOC(=O)C1=C(C)n2c(s/c(=C/c3cccc([N+](=O)[O-])c3)c2=O)=NC1c1ccc(O)c(OC)c1 (stereo not drawn)
-20.6%,O=C(CSc1nnc(Cn2nnc3ccccc32)o1)N(Cc1ccc(Cl)cc1)c1ccccc1
-11.2%,COc1ccc(S(=O)(=O)N(C)CC(=O)N2CCCCC2)cc1Cl
-5.5%,COc1cc(NC(C)CCCN)c2ncccc2c1 (stereo not drawn)
-6.5%,Cc1ccccc1C1CC(=O)Oc2cc(O)ccc21 (stereo not drawn)
2.4%,Cc1ccccc1NC(=O)Nc1nnc(Cc2ccc([N+](=O)[O-])cc2)s1
0.7%,Cc1cc(=O)[nH]c(SCC(=O)NCCOc2ccccc2)n1
-6.6%,CCOc1cc(C)ccc1OCc1nnc(SCC(=O)c2cccc([N+](=O)[O-])c2)n1C
-2.6%,COC(=O)c1ccc(/C=N/NC(=O)CCSc2nc3ccccc3s2)cc1
-15.9%,O=c1c(C=Nc2cccc(C(F)(F)F)c2)c[nH]n1-c1cccc(Cl)n1
-13.6%,Oc1ccc(/C=N/n2c(-c3ccco3)csc2=Nc2cccnc2)c(O)c1
?,CCOP(=O)(c1c(F)c(F)c(F)c(F)c1F)C(O)c1ccccc1 (stereo not drawn)
-4.5%,CCOCCCNS(=O)(=O)c1ccc(NC(=O)c2ccccc2)cc1
-13.9%,COc1ccc(N2CCN(C(=O)c3ccc4c(c3)OCO4)CC2)cc1
-9.8%,O=C(O)/C=C\C(=O)N1Cc2cc3ccccc3nc2C1
-1.1%,Cn1c(C(=O)N2CCC(C(N)=O)CC2)cc2c(=O)n(C)c3ccccc3c21
-2.1%,Cc1ccc(Cn2c(SCC(=O)Nc3cc(C)on3)nc3ccccc3c2=O)cc1
-21.9%,O=c1c2c(-c3cccs3)csc2ncn1-n1cccc1
-16.0%,Cc1nc(-c2cccc(NC(=O)c3cccs3)c2)cs1
1.2%,O=C(NCc1ccco1)C1CCN(S(=O)(=O)N2CCOCC2)CC1
-17.6%,CC1CCCCN1C(=O)CSc1nnc(-c2c[nH]c3ccccc23)o1 (stereo not drawn)
-7.4%,Cc1ccc(-n2nc(C(=O)c3ccccc3)n3c(=O)cc(-c4ccccc4)nc23)cc1
-13.7%,Cc1cn2c(-c3cccnc3)nnc2s1
-7.2%,O=C(c1ccccc1)c1cc(-c2ccccn2)c(N2CCOCC2)s1
-10.7%,CCOc1ccc(OCc2cccc(C(=O)N3CCCC3)c2)cc1
-18.9%,CN(/C(=N\S(=O)(=O)c1ccccc1)C(F)(F)F)c1ccccc1
-13.7%,COCCn1c(C)cc(C(=O)COC(=O)c2n[nH]c3ccccc23)c1C

(further entries)
HPGD inh,SMILES
1.0%,CC(=O)OC(C(=O)NC1CCCCC1)c1cccc(C)c1 (stereo not drawn)
-15.9%,O=C(O)c1ccn(Cn2cnc3ccccc32)n1
-11.7%,O=C(N1CCCC1)N1CCN(c2ncnc3c(-c4ccc(Cl)cc4)nsc23)CC1
-16.6%,Cc1ccc2nc(SCC(=O)Nc3cc(C(C)(C)C)nn3-c3ccccc3)[nH]c2c1
-5.7%,CC(=Nc1cccc(C)c1)c1sc2ccccc2c1O
-23.4%,O=C1CC(c2ccco2)CC2=C1C=Nc1ccccc1N2 (stereo not drawn)
-22.6%,Cc1cc(/C=C(\C#N)C(=O)NCc2cccs2)c(C)n1-c1ccc([N+](=O)[O-])cc1
0.0%,COc1ccc(C2=NO[C@@H]3C(=O)N(c4cccc(C)c4C)C(=O)[C@H]23)cc1OC
15.8µM*,CC(=O)c1cccc(NC(=S)NC(=O)CC(C)(C)C)c1
-14.8%,Cc1cc(N=Cc2c(O)n(-c3cccc(Cl)c3)c(=O)c3ccccc23)no1
-26.0%,CC1CCCCC1NC(=O)COC(=O)c1c2c(nc3ccccc13)/C(=C/c1ccco1)CC2 (stereo not drawn)
-18.4%,CCC1(C)Cc2c(sc3nc(SC)nc(N)c23)CO1 (stereo not drawn)
-14.1%,Cc1cccc(C(=O)NCCc2nnc(SCC(=O)Nc3nc(C)cs3)n2C)c1
-0.8%,O=C(CCS(=O)(=O)c1ccc(Cl)cc1)OCC(=O)N1CCCCC1
?,CC(C)CCNC(=O)Cn1c2c(c(-c3ccccc3Cl)cc1=O)CCC2
0.7%,OCc1ccccc1NC(=S)Nc1cccnc1
-1.8%,COc1ccc(C(=O)NCC2OCCc3ccccc32)cc1 (stereo not drawn)
-16.7%,COCC(=O)N1CCC2(CCCN(c3ncccn3)C2)CC1
-8.9%,CC(C)(C)n1ncc2c(=O)n(CC(=O)Nc3ccc(Cl)cc3)cnc21
?,CC(C)Cn1c(N)c(C(=O)NCCN2CCOCC2)c2nc3ccccc3nc21

5 of the compounds above, bar-delimited.
SMILES | HPGD inh
Cc1ccc2nc(SCC(=O)Nc3cc(C(C)(C)C)nn3-c3ccccc3)[nH]c2c1 | -16.6%
CC(=Nc1cccc(C)c1)c1sc2ccccc2c1O | -5.7%
O=C1CC(c2ccco2)CC2=C1C=Nc1ccccc1N2 (stereo not drawn) | -23.4%
Cc1cc(/C=C(\C#N)C(=O)NCc2cccs2)c(C)n1-c1ccc([N+](=O)[O-])cc1 | -22.6%
COc1ccc(C2=NO[C@@H]3C(=O)N(c4cccc(C)c4C)C(=O)[C@H]23)cc1OC | 0.0%

The listing picks up, starting three compounds before the break.
HPGD inh,SMILES
-16.7%,COCC(=O)N1CCC2(CCCN(c3ncccn3)C2)CC1
-8.9%,CC(C)(C)n1ncc2c(=O)n(CC(=O)Nc3ccc(Cl)cc3)cnc21
?,CC(C)Cn1c(N)c(C(=O)NCCN2CCOCC2)c2nc3ccccc3nc21
-7.5%,Cc1cc(C(F)(F)F)nc(NCc2cccnc2)n1
-11.1%,Cc1ccc(S(=O)(=O)c2c(C)nn(C(C)(C)C)c2OC(=O)c2ccc(Br)o2)cc1
22.4µM*,COc1ccc(OC)c(S(=O)(=O)Nc2ccc(O)c(Sc3ncn[nH]3)c2)c1
-7.2%,Cc1ccc(NC(=O)Nc2cccs2)cc1
-0.2%,CCCN1C(=O)C(O)(C/C(C)=N/O)c2ccccc21 (stereo not drawn)
-8.7%,Cc1nc(-c2cccnc2)sc1C(=O)Nc1ccc(Cl)cc1
-9.3%,CCOC(=O)c1cnc(SCC(=O)NCc2cccs2)nc1N
-6.3%,CCC(C(=O)NCc1ccco1)N(Cc1cccs1)C(=O)CNS(=O)(=O)c1ccccc1 (stereo not drawn)
-8.3%,COCCN(CC(=O)NCC1CCCO1)C(=O)CCC(=O)Nc1cc(C)on1 (stereo not drawn)
-3.8%,Nc1nc2[nH]c(=O)[nH]c2c(=O)[nH]1
?,COc1cccc(Cn2c(=O)c(-c3ccccc3)nc3cnc(N(C)C)nc32)c1
-6.6%,COc1cc(NC(=O)C/C(C)=N/NC(=O)c2cccc(O)c2)c(OC)cc1Cl
14.1µM*,Cc1[nH]c2ccccc2c1N=Nc1ccccc1C(=O)O
?,COc1cccc(-c2nn(C)c3sc(C(=O)N4CCN(c5ccccc5)CC4)cc23)c1
2.6%,CN(C)CCCO[C@H]1[C@@H]2OC(C)(C)O[C@@H]2O[C@@H]1[C@H](O)CO
-13.8%,Cc1ccc(SCc2[nH]nc3c2C2(CCSCC2)C(C#N)=C(N)O3)cc1
-15.7%,O=C(c1ccccc1)N1CCCC(C(=O)N2CCCCCC2)C1 (stereo not drawn)
-9.1%,Cc1noc(C)c1S(=O)(=O)N1CCCCC1
-23.9%,COc1ccc(/C(O)=C2\C(=O)C(=O)N(c3cc(C)on3)C2c2ccccc2OC)cc1 (stereo not drawn)
-7.5%,Cc1ccccc1C(=O)N/N=C/c1ccc(Sc2ccccn2)o1
-13.6%,Cc1cc(C)nc(SCc2nnc(SCC(=O)Nc3nc(-c4ccccc4)cs3)n2-c2ccccc2)n1
-4.5%,COc1ccc(OC)c(NC(=O)CN2C(=O)NC3(CCOc4ccccc43)C2=O)c1 (stereo not drawn)
-2.6%,CNc1ncnc2c1ncn2[C@H]1C[C@H](OP(=O)(O)O)[C@H](COP(=O)(O)O)O1
-2.8%,CCCCCCCCCCCCCCCC(=O)OCC(COP(=O)(O)O)OC(=O)CCCCCCCCCCCCCCC (stereo not drawn)
-5.1%,COCCn1c(SCC(=O)N2CCC(C)CC2)nc2ccccc2c1=O
-26.2%,COc1ccc(-c2noc(-c3cccc(OC)c3OC)n2)cc1OC
?,COC(=O)c1cc(C)nc(N)c1C#N
-25.6%,COc1cccc(N=c2oc3c(C)ncc(CO)c3cc2C(N)=O)c1
-23.2%,Cc1ccc(N2C(=O)C3C(C2=O)C(C(=O)c2ccc(Cl)cc2)N2CCCC32)cc1 (stereo not drawn)
-9.1%,Cc1noc(C)c1C(=O)N1CCC2(CCN(Cc3cc(C(F)(F)F)cc(C(F)(F)F)c3)CC2)CC1
-0.9%,CC(C)C(NS(=O)(=O)c1ccccc1)C(=O)OCc1cc([N+](=O)[O-])cc2c1OCOC2 (stereo not drawn)
-17.5%,O=C(CCCC(=O)Nc1cccnc1)Nc1cccnc1
-5.2%,CC(C)n1c2ccccc2c2cc([N+](=O)[O-])ccc21
-3.2%,CCCCN(CCCC)CCCNC(=O)CC1Oc2ccc(C)cc2NC1=O (stereo not drawn)
3.6%,CCC(C)(C)NC(=O)C(c1cccc(OC)c1)N(C(=O)c1ccn[nH]1)c1cccc(OC)c1 (stereo not drawn)
-5.6%,CC(=O)NC(CCS(C)(=O)=O)C(=O)Nc1ccc2c(c1)OCO2 (stereo not drawn)
-5.7%,CS(=O)(=O)N(CC(=O)Nc1cc(Cl)ccc1Cl)c1ccccc1
-0.6%,O=c1ccc(Oc2nc(N3CCCCC3)nc(N3CCCCC3)n2)n[nH]1
-9.5%,O=C(O)CCC(=O)Nc1ccc(N2CCOCC2)cc1
-9.4%,Cc1ccc2c(c1)[C@@H](O)C[C@@H](C)N2N=O
-3.9%,COc1ccccc1NC(=O)CSc1nnnn1-c1ccc(C)cc1
1.4%,CC(=O)NS(=O)(=O)c1cccnc1Nc1ccc(Cl)cc1
-5.3%,O=C1C2C3C=CC(C3)C2C(=O)N1c1n[nH]c(-c2cccnc2)n1 (stereo not drawn)

Copied from the entries so far (three entries):
HPGD inh,SMILES
-16.8%,Cn1c(CN2CCCC2)nc2cc(NC(=O)COc3ccc([N+](=O)[O-])cc3)ccc21
-5.9%,CCN(C(=O)CSc1nnc(NC2CCCCC2)s1)C1CCS(=O)(=O)C1 (stereo not drawn)
-18.9%,Cc1c(NC(=O)/C(C#N)=C/c2ccc(-c3cc(Cl)ccc3Cl)o2)c(=O)n(-c2ccccc2)n1C

Screening results (PubChem BioAssay)
